High-throughput results deposited in PubChem BioAssay by Broad Institute.
Ecoli rRNA inh = reduced GFP signal of wild-type E. coli, primary screen, bacterial rRNA inhibitor project, GFP/RFP fluorescence, OD600, single point | E. coli WT GFP vs humanized-ribosome RFP mutants, 24 h; stronger effect = lower value; DMSO median 0, no signal -100 | GFP signal change (wild-type ribosome), % (concentration not given with the values) | 350,000 tested, 1.6% active | AID 720706, 2013;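 active = significant combined selectivity score with lowered wild-type GFP, culture density cut under 30%, mutant RFP and density less affected; inactive = any of these conditions unmet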; also: one replicate is shown; some compounds called inactive have numbers as strong as hits
Ecoli rRNA inh OD600 = further read-out of Ecoli rRNA inh, marked with its call; OD600 change, %; measured here: OD600 growth;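 optical density of the mix in the first replicate; 0 = DMSO median and -100 = no signal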
Ecoli rRNA inh RFP = recorded beside Ecoli rRNA inh, whose call it bears; RFP signal change, %; measured here: RFP humanized mutant strains;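 first replicate; 0 = DMSO median and -100 = no signal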
Numbers without * were called inactive; & = joins results of further samples.

SMILES	Ecoli rRNA inh	Ecoli rRNA inh OD600	Ecoli rRNA inh RFP
CCCNC(=O)Nc1ccc2c(c1)C(=O)N(C)[C@@H]1CC[C@H](CC(=O)NC3CCC3)O[C@@H]1CO2	6	16	0.5
CCc1nc2c(OCCn3cccc3)cccn2c1N(C)C(=O)c1ccc(OC)cc1	17	17	1.2
COCC#Cc1ccc2c(c1)O[C@@H](CN(C)C(=O)CN(C)C)[C@H](C)CN([C@H](C)CO)S2(=O)=O	1	8	-0.8
O=C1Nc2ccccc2N=C(c2ccc3c(c2)OCO3)C1N(CCc1ccccc1)C(=O)CSc1ncccn1 (stereo unspecified)	-3	-5	3.2
Cc1noc(C)c1NC(=O)N(C)C[C@@H]1Oc2ccc(NS(=O)(=O)c3cccs3)cc2CC(=O)N([C@H](C)CO)C[C@H]1C	-2	-5	-1.7
Cc1ccc(S(=O)(=O)N2C[C@H]3C(=O)C[C@@H](c4ccccc4F)N(S(=O)(=O)c4ccc(C)cc4)[C@H]3C[C@H]2c2cccc3ccccc23)cc1	6	8	-1.0
C[C@H](CO)N1C[C@H](C)[C@H](CN(C)Cc2ccc(C(=O)Nc3ccccc3N)cc2)Oc2ccc(NC(=O)CCC(F)(F)F)cc2C1=O	-2	-3	-1.1
C[C@H](CO)N1C[C@H](C)[C@@H](CN(C)C(=O)Nc2cc(F)ccc2F)Oc2cc(-c3ccc(C#N)cc3)ccc2S1(=O)=O	-6	-1	3.1
O=C(NCCc1ccccc1)c1cc(S(=O)(=O)N2CCCCC2)c[nH]1	-2	-2	3.9
Cc1ccc(S(=O)(=O)Nc2cccc3c2O[C@@H](CN(C)Cc2ccc(Oc4ccccc4)cc2)[C@@H](C)CN([C@@H](C)CO)C3=O)cc1	0	-4	1.6
COc1cccc(NC(=O)C2(C)CCN2C(=O)C2CCCCC2)c1 (stereo unspecified)	6	-12	-2.0
CC(C)CC#Cc1cnc2c(c1)C(=O)N([C@@H](C)CO)C[C@@H](C)[C@@H](CN(C)C(=O)NC1CCCC1)O2	7	6	-0.3
COc1ccc(S(=O)(=O)Nc2cccc3c2O[C@@H](CN(C)C(=O)Nc2cccc4ccccc24)[C@H](C)CN([C@@H](C)CO)C3=O)cc1	-6	-2	0.1
C[C@@H]1CN([C@@H](C)CO)C(=O)c2cccc(NC(=O)C3CCCCC3)c2O[C@@H]1CN(C)Cc1ccc(C(=O)Nc2ccccc2N)cc1	-3	-3	-1.3
C=CCN=C1NC(c2ccccc2)C(C(=O)OC)=C(C)N1Cc1ccccc1C(F)(F)F (stereo unspecified)	-3	15	6.8
CCCN1C[C@@H](C)[C@@H](OC)CN(C)C(=O)c2cc(NC(=O)C3CCC3)ccc2OC[C@@H]1C	-2	4	2.3
CCNC(=O)[C@H]1[C@H](CO)[C@H]2Cn3c(ccc(/C=C/c4ccccc4)c3=O)[C@H]2N1C(=O)C1CC1	-3	-4	-2.0
C[C@H](NC(=O)C[C@H]1CC[C@H]2[C@@H](COC[C@@H](O)CN2Cc2cc(F)ccc2F)O1)c1ccccc1	-4	-14	-0.2
O=S1(=O)C[C@@H](N2CCC[C@@H]2CO)[C@H](COCc2ccccc2)N1	-4	-2	-1.0
COc1cccc(C(O)c2ncc(-c3ccc(Cl)cc3)[nH]2)c1 (stereo unspecified)	2	-11	17

An excerpt from above in order of SMILES length, ascending.
SMILES	Ecoli rRNA inh	Ecoli rRNA inh OD600	Ecoli rRNA inh RFP
CCc1nc2c(OCCn3cccc3)cccn2c1N(C)C(=O)c1ccc(OC)cc1	17	17	1.2
O=C1Nc2ccccc2N=C(c2ccc3c(c2)OCO3)C1N(CCc1ccccc1)C(=O)CSc1ncccn1 (stereo unspecified)	-3	-5	3.2
CCCN1C[C@@H](C)[C@@H](OC)CN(C)C(=O)c2cc(NC(=O)C3CCC3)ccc2OC[C@@H]1C	-2	4	2.3
CCCNC(=O)Nc1ccc2c(c1)C(=O)N(C)[C@@H]1CC[C@H](CC(=O)NC3CCC3)O[C@@H]1CO2	6	16	0.5
C[C@H](NC(=O)C[C@H]1CC[C@H]2[C@@H](COC[C@@H](O)CN2Cc2cc(F)ccc2F)O1)c1ccccc1	-4	-14	-0.2
Cc1noc(C)c1NC(=O)N(C)C[C@@H]1Oc2ccc(NS(=O)(=O)c3cccs3)cc2CC(=O)N([C@H](C)CO)C[C@H]1C	-2	-5	-1.7
COc1ccc(S(=O)(=O)Nc2cccc3c2O[C@@H](CN(C)C(=O)Nc2cccc4ccccc24)[C@H](C)CN([C@@H](C)CO)C3=O)cc1	-6	-2	0.1

Other entries:
SMILES	Ecoli rRNA inh	Ecoli rRNA inh OD600	Ecoli rRNA inh RFP
C[C@@H]1CCCCO[C@@H](CN(C)C(=O)CCCN(C)C)[C@@H](C)CN([C@H](C)CO)C(=O)c2cc(NS(=O)(=O)c3cccs3)ccc2O1	4	-3	-1.1
CO[C@H]1CC[C@H]2CCN(C)C(=O)[C@H](C)[C@H](OC)CN(C)C(=O)c3cccc(C#N)c3OC[C@H]1O2	3	2	0.8
C[C@H]1CN([C@@H](C)CO)C(=O)c2cc(Br)cnc2O[C@@H]1CN(C)C(=O)C1CCOCC1	6	12	-2.6
O=C(CC1CC1)N1CC(=O)N2[C@H](CO)[C@H](c3ccc(-c4cccnc4)cc3)[C@H]2C1	2	13	-0.7
Cc1nc2ccc(C(=O)N(C)Cc3ccco3)cn2c1N(C)CC1CCCCC1	3	-9	4.6
CO[C@@H]1CN(C)C(=O)c2ccc(NS(=O)(=O)c3ccccc3)cc2OC[C@H](C)N(Cc2nccs2)C[C@H]1C	-1	-4	2.2
Cc1noc(C)c1NC(=O)N(C)C[C@H]1Oc2ncc(C#CC3CC3)cc2C(=O)N([C@H](C)CO)C[C@H]1C	6	4	-2.7
C[C@@H]1CN([C@@H](C)CO)C(=O)c2cc(/C=C/c3ccccc3)cnc2O[C@@H]1CN(C)C(=O)c1cnccn1	-3	7	-1.7
CN(C)C(=O)[C@H]1[C@H](CO)[C@H]2Cn3c(ccc(C4=CCCC4)c3=O)[C@H]2N1C(=O)Cc1cccnc1	6	10	1.7
CCN(CC)C(=O)C1=C(C)N(CCCOC)C(=O)C(CC(=O)NCc2ccco2)C1 (stereo unspecified)	-1	-17	1.9
COC(=O)C[C@@H]1CC[C@@H]2[C@H](COc3ccc(NC(=O)Cc4cccs4)cc3C(=O)N2C)O1	-2	-6	-2.9
CCCC#Cc1ccc([C@H]2[C@@H](CO)N3C(=O)CN(C(=O)c4ccc(F)cc4)C[C@H]23)cc1	6	-20	4.5
C[C@@H]1CN([C@@H](C)CO)C(=O)c2cc(NS(=O)(=O)c3ccccc3)ccc2O[C@H]1CN(C)S(=O)(=O)c1ccccc1	-7	-4	1.7
C[C@H](CO)N1C[C@H](C)[C@@H](CN(C)C(=O)Nc2ccc3c(c2)OCO3)Oc2ccc(NS(=O)(=O)c3ccc(Cl)cc3)cc2CC1=O	-3	-3	-2.8
CO[C@@H]1CN(C)C(=O)c2ccc(NC(=O)Nc3ccccc3Cl)cc2OC[C@@H](C)N(C(C)=O)C[C@H]1C	-6	-15	1.8
C[C@@H]1CCCCO[C@H](CN(C)C(=O)c2ccncc2)[C@H](C)CN([C@H](C)CO)C(=O)c2cc(N(C)C)ccc2O1	-2	4	-1.9
CC(C)C(=O)Nc1ccc2c(c1)C(=O)N(C)[C@H]1CC[C@@H](CC(=O)NCc3ccccc3)O[C@@H]1CO2	3	2	2.6
CCCCNC(=O)C1(C)CCCCN1C(=O)c1c(Cl)cccc1Cl (stereo unspecified)	7	8	-0.6
Cc1ccc(S(=O)(=O)Nc2ccc3c(c2)C(=O)N([C@@H](C)CO)C[C@H](C)[C@H](CN(C)CC2CCCCC2)O3)cc1	-1	3	0.2
CNC[C@H]1Oc2ncc(C3=CCCC3)cc2C(=O)N([C@H](C)CO)C[C@H]1C	4	10	-0.4
CC(C)C[C@H]1CN([C@@H](Cc2ccccc2)CN2CCC[C@@H]2CN2C(=O)C(=O)NC[C@@H]2Cc2ccc(O)cc2)C(=O)C(=O)N1CCc1ccccc1	-15	-25	-2.4
COc1ccc(S(=O)(=O)N(C)C[C@H]2OCCCC[C@H](C)Oc3ccc(NS(=O)(=O)c4cn(C)cn4)cc3C(=O)N([C@@H](C)CO)C[C@@H]2C)cc1	-6	4	2.2
CCN(C)C1CN(Cc2cn(CCCC(=O)OC)nn2)S(=O)(=O)C1 (stereo unspecified)	22	15	1.6
Cc1cccc(C)c1-n1nnnc1C(c1ccnc2ccccc12)N1CCN(CC(=O)NC(C)C)CC1 (stereo unspecified)	23	12	0.6
COc1ccc(CNC(=O)C[C@@H]2C=C[C@H](NC(=O)c3ccc4c(c3)OCO4)[C@@H](CO)O2)cc1	-2	2	0.5
C[C@@H]1CCCCO[C@@H](CN(C)CC2CCCCC2)[C@@H](C)CN([C@@H](C)CO)C(=O)c2cc(NS(=O)(=O)c3ccccc3)ccc2O1	1	-20	6.7
CNC[C@H]1Oc2c(NC(=O)NC(C)C)cccc2C(=O)N(C)C[C@@H]1C	-1	4	-2.6
C[C@@H]1CN([C@@H](C)CO)C(=O)c2cccc(NC(=O)Nc3ccc(F)cc3)c2O[C@H]1CN(C)CC1CCCCC1	-10	-13	-3.8
N#C[C@H]1[C@H](c2ccccc2-c2cccc(F)c2)[C@@H](CO)N1C(=O)NC1CCCC1	-5	-58	4.3
CCNC(=O)C[C@@H]1CC[C@H]2[C@@H](COC[C@H](O)CN2Cc2ccccc2F)O1	1	5	-5.1
COc1ccc(NC(=O)N(C)C[C@@H]2Oc3ccc(NC(=O)Cc4ccccc4)cc3CC(=O)N([C@@H](C)CO)C[C@@H]2C)cc1	-1	-5	-2.7
CC(C)NC(=O)N(C)C[C@H]1Oc2ccc(N(C)C)cc2CC(=O)N([C@H](C)CO)C[C@@H]1C	3	3	-1.0
CN(C)C(=O)c1ccc(-c2ccc([C@@H]3[C@@H](CO)N(C(=O)C4CCOCC4)[C@H]3C#N)cc2)cc1	3	-4	-5.0
CN1C(=O)c2cc(NC(=O)c3cscn3)ccc2OC[C@H]2O[C@H](CC(=O)N3CCCCC3)CC[C@H]21	-3	-7	-1.1
COc1ccc(NC(=O)CN2C(=O)NC(C)(c3ccccc3)C2=O)cn1 (stereo unspecified)	12	13	3.7
C[C@@H]1CN([C@@H](C)CO)C(=O)c2cc(NC(=O)c3ccncc3)ccc2O[C@H]1CN(C)S(=O)(=O)c1cccs1	0	7	2.0
CC(C)NC(=O)N(C)C[C@H]1Oc2c(NS(=O)(=O)c3ccc(F)cc3)cccc2C(=O)N([C@@H](C)CO)C[C@@H]1C	-1	1	0.6
C[C@H]1CN([C@@H](C)CO)C(=O)CCCn2nncc2CO[C@@H]1CN(C)Cc1ccc2c(c1)OCO2	11&0	2&3	-3.2&-1.1
CO[C@H]1CN(C)C(=O)c2cc(NS(=O)(=O)c3ccc(C)cc3)ccc2OC[C@H](C)N(Cc2nccs2)C[C@H]1C	-5	-13	3.6
C[C@@H]1CN([C@@H](C)CO)C(=O)Cc2cc(NS(=O)(=O)c3ccccc3)ccc2O[C@@H]1CN(C)C	5	-3	0.0
CCCNC(=O)N1C[C@H](C)[C@H](OC)CN(C)C(=O)c2cc(NS(=O)(=O)CC(F)(F)F)ccc2OC[C@H]1C	0	2	-0.3
C[C@H]1CCCCO[C@@H](CN(C)C(=O)CCCN(C)C)[C@@H](C)CN([C@@H](C)CO)C(=O)c2cc(NC(=O)c3ccccc3)ccc2O1	0	5	0.8
C[C@@H]1CN([C@H](C)CO)C(=O)Cc2cc(NC(=O)C3CC3)ccc2O[C@H]1CN(C)C(=O)NC1CCCCC1	3	8	-0.1
CC(C)COC(=O)N(C)C[C@@H]1OCc2ccccc2-c2c(n(C)c3ccccc23)C(=O)N([C@H](C)CO)C[C@H]1C	-7	-16	8.4
C[C@@H]1CN([C@@H](C)CO)C(=O)c2cc(NC(=O)Nc3ccc4c(c3)OCO4)ccc2O[C@@H]1CN(C)Cc1ccc(-c2ccccc2)cc1	-1	4	0.1
COc1ccc(CN(C)C[C@H]2Oc3c(NC(=O)Nc4ccc(OC)cc4)cccc3C(=O)N([C@H](C)CO)C[C@H]2C)cc1	-1	-13	-2.0
C[C@H]1CN([C@@H](C)CO)S(=O)(=O)c2ccc(-c3ccc(C#N)cc3)cc2O[C@@H]1CN(C)C(=O)CN(C)C	1	7	0.2
COc1ccc(NC(=O)Nc2ccc3c(c2)C(=O)N([C@H](C)CO)C[C@H](C)[C@@H](CN(C)C(=O)C2CCCCC2)OCCCC[C@H](C)O3)cc1	-3	-5	-1.4
CCCCNC(=O)c1ccc2nc(CC)c(N(C)Cc3cccs3)n2c1	-44	-67	-7.1
CN(C)C(=O)c1cccc(-c2ccc([C@H]3[C@@H](CO)N(C(=O)C4CCCCC4)[C@H]3C#N)cc2)c1	0	6	-2.0
O=C(NCC[C@H]1CC[C@@H](NC(=O)C2CCCC2)[C@@H](CO)O1)c1cc(Cl)cc(Cl)c1	-8	-10	2.3
CCNC(=O)C[C@H]1CC[C@@H]2[C@H](COc3ccc(NC(=O)c4cscn4)cc3C(=O)N2C)O1	2	9	-3.6
COc1ccc(NC(=O)Nc2ccc3c(c2)C(=O)N([C@@H](C)CO)C[C@@H](C)[C@H](CN(C)CC2CC2)OCCCC[C@@H](C)O3)cc1	2	1	0.4
C[C@H](CO)N1C[C@H](C)[C@H](CN(C)Cc2ccc(Cl)c(Cl)c2)Oc2ccc(NC(=O)Cn3cnnn3)cc2C1=O	-4	-17	1.2

An excerpt; rates above refer to the full screens.
